Screening results from PubChem.
Rce1 inh: inhibitors of yeast Ras-converting enzyme | hit rate 0.27% among 290,000 | yeast membranes, quenched prenylated peptide cleavage fluorescence | calls only;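 active = fall in fluorescence gain of 50% or more versus controls, with final raw signal at or below 3038400; inconclusive = same 50% fall but final raw signal above 3038400; inactive = fall in fluorescence gain under 50%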;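 note: plate controls were neutral control wells for no effect and wells lacking membranes for full effect; tested at 10 µM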
MT1-MMP act inh: inhibitors of human MT1-MMP activation. P50281. HT1080 RFP-PRO-GFP cells, GFP/RFP ratio fluorescence, overnight; percent of plate control window, DMSO zero. GFP/RFP ratio change, % at 20 µM. hit rate 0.061% among 360,000. AID 651647;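 active = GFP/RFP ratio change of at least 30% with cell ATP level not reduced by more than half and red fluorescence within 50% of control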; note: strong numbers were not always called active
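Read-out: GFP/RFP fluorescence ratio; Test system: RFP-PRO-GFP reporter HT1080 cells; Compound dosing: single-point 20 µM compound, 1% DMSO; Times: overnight compound exposure at 37 °C.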
PABP polyA inh: PABP-poly(A) binding inhibition; PABP-poly(A) RNA binding, fluorescence polarization; inhibition, % at 35 µM; hit rate 1% among 290,000;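 active = 50% or more with normal probe brightness, or confirmed in later tests; inconclusive = above 50% with abnormal brightness, or retests that disagree; inactive = below 50% or failed in later tests; about a fifth of its hits are not listed in these tables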;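 note: calls also rest on retests at 20 µM and on dose response follow-up; controls were probe without protein and protein plus probe with vehicle; some compounds called inactive have numbers as strong as hits; many hits fall short of the cut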
Target sequence (P11940 whole entry, looked up): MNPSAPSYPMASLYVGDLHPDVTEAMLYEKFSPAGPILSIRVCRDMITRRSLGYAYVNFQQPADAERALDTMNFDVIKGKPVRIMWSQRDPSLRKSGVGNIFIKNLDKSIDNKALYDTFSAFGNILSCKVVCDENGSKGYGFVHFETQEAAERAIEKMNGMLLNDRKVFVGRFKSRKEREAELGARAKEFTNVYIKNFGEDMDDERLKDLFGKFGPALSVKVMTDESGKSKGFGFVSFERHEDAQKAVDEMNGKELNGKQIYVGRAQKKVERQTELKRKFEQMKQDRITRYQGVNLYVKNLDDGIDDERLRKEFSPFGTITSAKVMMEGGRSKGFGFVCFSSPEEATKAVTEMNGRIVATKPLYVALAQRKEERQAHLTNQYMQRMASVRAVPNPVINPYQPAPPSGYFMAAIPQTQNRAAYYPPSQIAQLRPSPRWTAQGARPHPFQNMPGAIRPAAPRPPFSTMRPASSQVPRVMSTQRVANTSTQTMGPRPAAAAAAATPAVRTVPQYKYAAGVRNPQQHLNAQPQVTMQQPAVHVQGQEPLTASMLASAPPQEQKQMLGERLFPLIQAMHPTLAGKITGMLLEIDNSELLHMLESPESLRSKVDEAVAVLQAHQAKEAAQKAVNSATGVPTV
CSC inhib: cancer stem cell inhibition; cancer stem cell-like cells viability, luminescence; inhibition, % at 7.5 µM; hit rate 1.1% among 300,000;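 active = mean at 75% or more and at least half the replicates too; inconclusive = mean and replicates disagree; tested in HMLE shEcad cells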;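 note: 0% = median of negative and 100% = median of positive control wells; the first replicate is given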
eIF4H FP inh: inhibitors of RNA binding by human eIF4H; Q15056; eIF4H fluorescence polarization binding assay; inhibition, % at 35 µM; hit rate 0.94% among 290,000; AID 2012;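 active = 50% or more with normal probe brightness, or confirmed in later tests; inconclusive = above 50% with abnormal brightness, or retests that disagree; inactive = below 50% or failed in later tests; about a fifth of its hits are not listed in these tables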;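 note: calls also rest on retests at 20 µM and on dose response follow-up; 0% = protein and probe with vehicle and 100% = probe without protein; strong numbers were not always called active; many hits fall short of the cut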
Yeast UUG start: alters start codon recognition fidelity in yeast. S. cerevisiae UUG-firefly luciferase reporter, luminescence/redox ratio. AID 602363. activity score, % at 18.7 µM. hit rate 0.13% among 350,000;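 active = replicate mean at a twofold rise or more, about +100% in these data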;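 note: firefly luciferase made from a UUG start codon reports start codon fidelity; reporter light over untreated wells divided by growth signal over untreated wells; some hits fall short of that in this replicate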
HIV Env fusion: inhibitors of HIV Env-mediated cell fusion; HeLa-JRFL Env/CEM21 cell fusion, luciferase; inhibition, % at 12.3 µM; hit rate 1.1% among 360,000; AID 651610;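 active = mean replicate inhibition score of at least 50 and every replicate individually at or above 50; inconclusive = only one of the two criteria met; inactive = mean below 50 and not all replicates reaching 50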;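 note: 0% = plate neutral controls and 100% = maraviroc near 300 nM; one replicate is shown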
MT1-MMP act inh RFP: recorded beside MT1-MMP act inh, whose call it bears; RFP signal change, %; measured here: RFP expression control read;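 0 = vehicle wells; hits needed this value within 50% of zero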
* hit, by the source's call; i = inactive; ? = inconclusive; / = not tested or not shown. These rows are one share of the data (hit frequency here may not be typical).

smiles | PABP polyA inh | CSC inhib | MT1-MMP act inh | MT1-MMP act inh RFP | Yeast UUG start | eIF4H FP inh | Rce1 inh | HIV Env fusion
CCCC(=O)c1cc(CP(=O)(OCC)OCC)oc1C | 6.1 | 19.2 | -0.3 | 6.9 | -12.6 | 13.3 | i | 7.7
CC(=O)Nc1ccc(C(=O)OCC(=O)Nc2ccc(Cl)cc2C(=O)c2ccccc2)cc1 | 29.5 | 29.2 | 4.0 | 0.2 | / | -7.1 | i | -252.4
C[C@@H]1O[C@@H](O[C@@H]2C=C3CCC4C(CC[C@]5(C)[C@@H](c6ccc(=O)oc6)CC[C@]45O)[C@@]3(C)CC2)[C@H](O)[C@H](O)[C@H]1O (some centres not stated) | / | 100.7* | -41.4 | -34.8 | -5.6 | / | / | 65.0*
Cc1ccc(N)c(C)c1 | / | -5.1 | 1.1 | 4.8 | 3.6 | / | / | /
Nc1c(C(=O)NCCN2CCOCC2)c2nc3ccccc3nc2n1Cc1ccco1 | ? | -7.4 | -15.7 | 12.2 | -15.9 | ? | i | /
CC(=O)O[C@H]1CCC2C3CCC4=CC(=O)CCC4=C3C=C[C@@]21C (some centres not stated) | 17.8 | -5.9 | 0.0 | 0.5 | 17.0 | 19.9 | i | 11.9
Cn1c(=O)c2c(ncn2CCCl)n(C)c1=O | 5.3 | -5.8 | 6.4 | 10.3 | -13.6 | 6.6 | i | /
CC(NS(=O)(=O)OCC(Cl)(Cl)Cl)c1ccccc1 (configuration not stated) | 14.9 | -10.0 | -3.3 | 1.1 | -44.6 | 4.7 | i | 5.0
Cc1ccc(N)c(C(=O)c2ccccc2)c1 | -4.1 | -5.9 | 0.8 | -0.9 | -13.0 | 3.5 | i | /
COP(=S)(OC)c1c(C)nn(CCC#N)c1NC(=O)c1ccc(Cl)cc1 | 2.9 | -14.8 | 4.1 | 4.0 | 4.5 | -14.9 | i | 7.6
CN(c1ccc(O)cc1)c1ccc([N+](=O)[O-])c2nonc12 | / | / | -0.2 | -3.1 | 37.7 | / | / | -9.5
Cc1cc(NC(=O)CCl)no1 | 1.8 | -1.0 | -8.8 | -3.6 | / | -15.2 | i | 1.3
O=C1/C(=C\c2ccncc2)N2CCC1CC2 | -16.9 | -6.0 | -5.0 | 1.5 | -7.4 | 1.6 | i | 15.2
CCc1ccc(NC(=O)CCNC(=O)N2C[C@H]3C[C@@H](C2)c2cccc(=O)n2C3)cc1 | -6.7 | -2.8 | 0.2 | 3.0 | -1.3 | -7.7 | / | /
OC(CN1CCC(c2c[nH]c3ccccc23)CC1)C(F)(F)F (configuration not stated) | -1.3 | / | 1.9 | 4.2 | -1.4 | -7.8 | i | 29.8
COC(=O)C1=C(c2ccc(C(C)=O)cc2)C[C@@H]2CC[C@H]1N2C(=O)N1CCC(O)(c2ccc(Cl)cc2)CC1 | / | -6.3 | -0.8 | -6.0 | -14.6 | / | / | -22.0
Cc1ccc2c(c1)C(c1ccccc1)=NCC(=O)N2 | 12.6 | 8.7 | 3.1 | 1.0 | -15.1 | 2.8 | i | -2.3
O=C(c1ccccc1)C(O)(CN1CCCCC1)c1ccccc1 (configuration not stated) | / | / | -1.6 | 1.4 | -21.8 | / | / | 8.4
COC(=O)C1=C(c2ccc(F)cc2F)C[C@@H]2CC[C@H]1N2C(=O)NCc1ccc(C(F)(F)F)cc1 | / | 16.7 | 0.7 | -1.8 | -22.6 | / | / | 43.9
Cc1ccccc1C(O)(Cc1ccccc1)C1CN2CCC1CC2 (configuration not stated) | 10.4 | 29.2 | -40.6 | -17.5 | 1.5 | 5.7 | i | /

Reprinted from the part before: four compounds; new compounds follow.
smiles | PABP polyA inh | CSC inhib | MT1-MMP act inh | MT1-MMP act inh RFP | Yeast UUG start | eIF4H FP inh | Rce1 inh | HIV Env fusion
Cc1ccc2c(c1)C(c1ccccc1)=NCC(=O)N2 | 12.6 | 8.7 | 3.1 | 1.0 | -15.1 | 2.8 | i | -2.3
O=C(c1ccccc1)C(O)(CN1CCCCC1)c1ccccc1 (configuration not stated) | / | / | -1.6 | 1.4 | -21.8 | / | / | 8.4
COC(=O)C1=C(c2ccc(F)cc2F)C[C@@H]2CC[C@H]1N2C(=O)NCc1ccc(C(F)(F)F)cc1 | / | 16.7 | 0.7 | -1.8 | -22.6 | / | / | 43.9
Cc1ccccc1C(O)(Cc1ccccc1)C1CN2CCC1CC2 (configuration not stated) | 10.4 | 29.2 | -40.6 | -17.5 | 1.5 | 5.7 | i | /
CCC(c1nnnn1-c1ccc(OC)cc1)N1CCC2(CC1)C(=O)NCN2c1ccccc1 (configuration not stated) | / | / | 0.1 | -1.6 | 6.1 | / | / | -69.4
Clc1ccc(CNC2CN3CCC2CC3)cc1 (configuration not stated) | -1.9 | 8.1 | -1.3 | -0.3 | / | 3.0 | i | /
O=C(Cc1cc(=O)[nH]c(=O)[nH]1)N1CCN(CCO)CC1 | 0.6 | / | -1.2 | 4.0 | -16.2 | -1.2 | / | 18.5
CCOc1ccc(NC(=O)N2C[C@H]3C[C@@H](C2)c2cccc(=O)n2C3)cc1 | -2.6 | -3.9 | 8.4 | 12.6 | -8.3 | 2.5 | i | /
CCc1ccc(N2C(=O)NC(=O)/C(=C\C=C\c3ccco3)C2=O)cc1 | ? | 115.9* | -34.7 | 35.7 | -12.6 | ? | i | -119.0
O=C(O)c1ccc(NC(=O)N2C[C@H]3C[C@@H](C2)c2cccc(=O)n2C3)cc1 | -7.7 | -3.5 | -0.2 | -1.5 | -19.5 | -1.4 | / | /
Nc1ccccc1C(=O)OCC(=O)Nc1ccc(Br)cc1F | 4.0 | 1.8 | 1.1 | 1.6 | -0.5 | -10.0 | i | -9.9
COC(=O)C1=C(c2c(C)noc2C)C[C@@H]2CC[C@H]1N2C(=O)N1CCOCC1 | / | 11.1 | 12.1 | 2.8 | -16.5 | / | / | -10.4
N=C1c2ccccc2CN1c1ncccn1 | 7.1 | -3.0 | 3.8 | -1.0 | / | 1.0 | / | -19.1
COC(=O)C1=C(c2ccccc2)C[C@@H]2CC[C@H]1N2C(=O)NCC1CC1 | / | -5.9 | 3.2 | 6.3 | -8.9 | / | i | -18.0
CN(C)c1cc[n+](CC(O)C[n+]2ccc(N(C)C)cc2)cc1 | / | -14.4 | 1.3 | 6.2 | -15.0 | / | i | -42.5
CCc1cccc2c(C#N)cn(CC(=O)N3CCOCC3)c12 | -3.0 | -9.5 | -2.6 | -1.2 | -9.0 | 1.1 | i | -12.0
CC(C)n1c(=O)c(C=Nc2ccc(S(N)(=O)=O)cc2)c(O)n(Cc2ccco2)c1=O | -9.4 | 6.1 | -43.8 | 3.7 | / | ? | i | 14.0
O=C1NCN(c2ccccc2)C12CCN(C(c1cccs1)c1nnnn1-c1ccc3c(c1)OCCO3)CC2 (configuration not stated) | / | / | -3.3 | -10.5 | -15.4 | / | / | i
C/C(=N\NC(=O)c1ccccc1O)c1c(O)n(Cc2ccccc2)c(=O)[nH]c1=O | 11.7 | 0.9 | -11.8 | -9.2 | -18.9 | 6.7 | i | 6.3
COc1cccc(-c2nc(CS(=O)CC(=O)N3CCC4(CC3)OCCO4)c(C)o2)c1 (configuration not stated) | 0.4 | -7.0 | 2.9 | 5.0 | 3.0 | -3.4 | i | 5.3
O=C1NC(=O)C(=Cc2ccc3ccccc3c2)C(=O)N1 | 13.2 | -9.4 | -2.7 | 2.5 | -17.6 | 3.9 | i | -9.4
COc1ccccc1CCNCc1ccc(OC)c(OC)c1OC | -3.8 | 12.1 | -0.8 | 3.4 | / | 10.9 | i | 15.2
C[N+]1=C(/C=C/Nc2ccccc2)C(C)(C)c2ccccc21 | 15.6 | / | 37.8* | 26.9* | / | -5.2 | i | 23.4
COc1ccc(OC)c(CN2CCN(C(=O)COc3cccc(C)c3)CC2)c1 | 9.2 | 1.5 | 3.2 | 4.6 | -17.0 | 2.7 | i | /
C[C@@H]1CN(C2CCC(C#N)(c3ccc(F)cc3)CC2)CC[C@]1(C(=O)O)c1ccccc1 (some centres not stated) | / | -23.8 | -1.1 | -2.2 | -7.4 | / | / | -23.6
CC(C)OC12Oc3ccccc3C=C1N1CCC2CC1 (configuration not stated) | -0.8 | -29.1 | -3.4 | -0.3 | -17.4 | -9.3 | i | /
COc1ccccc1-n1c(O)c(/C=N/N2CCCCC2)c(=O)n(-c2ccccc2OC)c1=S | -8.5 | -1.4 | 0.6 | 6.4 | / | -17.6 | i | -2.7
CCC(C)C12CN3CCN(CC(C)(C3)C1O)C2 (configuration not stated) | -2.1 | -12.1 | 1.8 | 4.2 | / | -3.4 | i | -35.3
CC1=NN(c2ccccc2)C(=O)C1/C=C1\C(=O)NC(=O)N(c2cc(C)cc(C)c2)C1=O (configuration not stated) | ? | 0.5 | -2.7 | -0.4 | -15.5 | ? | i | /
[N-]=[N+]=NCCN1CCC(O)CCC1=O (configuration not stated) | 9.1 | -0.2 | -0.6 | 0.3 | -7.3 | 6.2 | i | /
O=S(=O)(c1cccc(C(F)(F)F)c1)N1Cc2ccccc2-n2nncc2C1 | / | / | 3.3 | -9.0 | -8.5 | / | / | 11.0
Cc1c(O)ccc(C(=O)CN2CC(C)OC(C)C2)c1O (configuration not stated) | 18.0 | -9.4 | 1.3 | -0.5 | -18.5 | 1.6 | i | 0.6
Cc1ccc(-c2ccc(=O)n(CC(=O)N3CCC4(CC3)OCCO4)n2)cc1 | -8.0 | -10.6 | 0.8 | 0.3 | -4.5 | 4.1 | i | 0.1
Cn1ncnc2c(=O)n(C)c(=O)nc1-2 | 11.3 | 175.7* | -26.7 | -31.4 | -83.2 | -4.1 | i | /
O=C1CCCC2C3CCCN4CCCC(CN12)C34 (configuration not stated) | 1.9 | -5.2 | 2.5 | 6.5 | -1.8 | -9.4 | i | /
Cc1ccc(NP(=O)(Nc2ccc(C)cc2)Oc2ccccc2)cc1 | 13.6 | -4.3 | -2.9 | -4.1 | 21.8 | 0.6 | i | 9.7
O=c1c2ccccc2nc(/C=C/c2ccc3c(c2)OCO3)n1-c1ccccc1 | 5.4 | -11.2 | 0.1 | -2.1 | -16.0 | 2.9 | i | 11.6
C[C@H](NC(=O)N1C[C@H]2C[C@@H](C1)c1cccc(=O)n1C2)C(=O)Nc1cccc(F)c1 | 6.5 | -7.6 | 3.3 | 3.9 | -3.2 | 6.0 | / | /
COC(=O)C1C2c3ccccc3C(c3ccccc32)C1C(=O)OC (configuration not stated) | -14.2 | -5.2 | -1.3 | 1.6 | 3.5 | -2.6 | i | -6.8
Clc1ccccc1CN1CCN(c2ccccc2)CC1 | 8.7 | / | -0.7 | -2.7 | -5.7 | -9.1 | i | -11.7
CN1CCN(C(=O)COc2ccc3ccccc3c2Br)CC1 | 0.5 | 3.6 | 4.8 | 1.9 | 8.5 | -9.0 | i | /
Cc1c(C(=O)N2CCC3(CC2)OCCO3)sc2ncnc(N3CCN(c4ccccn4)CC3)c12 | -3.0 | 4.5 | 1.0 | -8.9 | -4.0 | 3.5 | / | 15.0
O=c1cccc2n1CC1CC2CN(S(=O)(=O)c2ccc(F)cc2)C1 (configuration not stated) | -0.2 | -9.1 | 2.5 | 5.0 | / | 8.7 | i | 0.1
CC(=NCCCN1CCOCC1)c1c(O)[nH]c(=O)[nH]c1=O | 6.1 | -5.6 | 2.1 | 1.8 | -11.5 | -9.7 | i | -2.5
CN1CCC(c2c[nH]c3ccc(O)cc23)CC1 | / | / | 2.8 | 8.1 | -30.1 | / | / | -17.5
Cc1ccc2occ(CN3CC4CC(C3)c3cccc(=O)n3C4)c(=O)c2c1 (configuration not stated) | 9.2 | -9.0 | 4.3 | 6.6 | 0.3 | 11.1 | i | /
